Rango release inh – qHTS Assay for Inhibitors of RanGTP induced Rango (Ran-regulated importin-beta cargo) - Importin beta complex dissociation; Potency, µM (titrated, usually from 46.1 µM), without a hit: top-dose activity change, negative = inhibition; AID 540253, 2011; Snurportin-1 (Homo sapiens) + GTP-binding nuclear protein Ran (Homo sapiens) + Importin …; Biochemical FRET Rango-importin beta, RanGTP-induced dissociation; 340,000 compounds, 0.071% hits; active means falling FRET ratio curve, often poorly fitted, with flat reads before Ran was added; inconclusive means other falling curves, or compound fluorescence or quenching; inactive means flat or rising ratio curve;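 note: potency is the fitted concentration of half-maximal effect; % of control where 0% means no effect; nearly all actives have a fitted effect of over 45% in size; -100% = wells without RanGTP and RCC1; the record marks most hits as doubtful in a second field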
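Rango FRET biosensor (snurportin-1 IBB flanked by N-terminal EYFP and C-terminal CFP10) at 0.1 uM, with 0.25 uM importin beta in PBS, 1mM DTT, 0.02% Tween-20, 0.1% BSA. 0.6 uM Ran, 2mM GTP and 0.2 uM RCC1 were then added for 45 min at room temperature. Inhibition read as loss of FRET rise.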
miR-21 reporter – qHTS Assay for Modulators of miRNAs and/orActivators of miR-21 | Potency, µM (top dose mostly 38.3 µM), for the others: at the top dose reporter change, positive = more light | 340,000 tested, under 10 active | HeLa miR-21 FLuc reporter, luciferase, 48 h | AID 2288, 2010; active = well fitted rising curve with a large enough effect; inconclusive = small, poorly fitted or top-dose-only effect; inactive = no such curve, though single readings can be large or run the other way;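 note: % of control where 0% means no effect; miR-21 action dims this reporter so a rising signal means less miR-21 action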
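HeLa miR-21-FLuc reporter line, endogenous miR-21; 2000 cells/well in DMEM/10% FBS; compound titration up to ~40uM final, 48 h, 37 degree Celsius; luciferase detection reagent, 15 min lysis, CCD luminescence.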
Rango-impB inh – qHTS Assay for Inhibitors of Rango (Ran-regulated importin-beta cargo) - Importin beta complex formation; 340,000 compounds, 0.031% hits; Importin subunit beta-1 (Homo sapiens), Q14974; AID 540263, 2011; Potency, µM (titrated, usually from 92.2 µM), inactives show at the highest dose inhibition of complex formation; Rango CFP/YFP FRET sensor + importin beta, 45 min; active = rising FRET ratio curve, often small or poorly fitted; inconclusive = mostly compound fluorescence or quenching in the first reads; inactive = flat curves in all reads;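 note: potency is the fitted concentration of half-maximal effect; 0% = DMSO wells and 100% = buffer wells lacking importin beta; nearly all actives have a fitted effect of over 15% in size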
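FRET biosensor (snurportin 1 IBB flanked by EYFP and cerulean), 50 nM, with compound 5 min, then 0.125 microM importin beta in PBS, 1 mM DTT, 0.02% Tween-20, 0.1% BSA. CFP/YFP ratio read after 45 min at room temperature; pre-read flags interference.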
GLA inh pH 4.5 – qHTS Assay for Inhibitors of Human alpha-Galactosidase at pH 4.5. activity change, negative = inhibition, % at 105 µM. AID 1467, 2008. purified enzyme, 4-MU-alpha-Gal fluorescence, pH 4.5. 230,000 tested, under 10 active; inconclusive = small, poorly fitted or top-dose-only inhibition, or a rising curve; inactive = flat fitted curve, though single readings scatter; no compound was filed as active;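 note: 0% = full activity with enzyme and -100% = basal without enzyme; dose as in the result columns while the protocol names 77 µM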
Target sequence (P06280 whole entry, looked up): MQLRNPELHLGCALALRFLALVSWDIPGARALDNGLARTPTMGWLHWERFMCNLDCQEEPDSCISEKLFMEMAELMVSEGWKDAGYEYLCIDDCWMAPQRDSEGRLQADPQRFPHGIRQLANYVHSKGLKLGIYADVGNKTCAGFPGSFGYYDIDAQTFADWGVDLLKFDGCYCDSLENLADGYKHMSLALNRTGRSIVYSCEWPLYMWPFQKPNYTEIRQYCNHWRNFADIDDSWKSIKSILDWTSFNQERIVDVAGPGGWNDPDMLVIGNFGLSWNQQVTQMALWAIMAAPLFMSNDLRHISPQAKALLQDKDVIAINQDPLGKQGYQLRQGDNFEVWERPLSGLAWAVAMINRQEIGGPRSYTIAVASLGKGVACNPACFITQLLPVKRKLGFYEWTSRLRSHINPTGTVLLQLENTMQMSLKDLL
An asterisk follows results filed as active; u = inconclusive; x = not tested or not shown. The list is partial, so the mix of outcomes need not match the whole.

Rango release inh	miR-21 reporter	Rango-impB inh	GLA inh pH 4.5	SMILES
-3%	-31%	-2.1%	x	Cc1c(C(=O)Nc2ccccn2)sc2nc3n(c(=O)c12)CCC3
u	0%	u	-2	O=c1cc2c(=O)oc3cc(O)c(O)oc3c2c(O)c1O
13%	0%	-2.6%	-9	CCOC(=O)CS(=O)(=O)CC(=O)Nc1ccc([N+](=O)[O-])cc1OC
-11%	7%	0.4%	x	CCCCCOC(=O)C1=C(C)NC(=O)NC1c1ccccc1 (stereo not drawn)
u	x	3.3%	x	C[C@H]1NC(=O)[C@@]2(C)[C@@H](c3ccccc3)[C@H]3COc4ccccc4[C@@H]3N2C1=O
3%	-2%	2.5%	-9	COC(=O)c1ccccc1NC(=O)N1CCN(C/C=C/c2ccccc2)CC1
-14%	-16%	-2.9%	-3	COc1ccc(C2CC(O)(C(C)(C)O)NO2)cc1 (stereo not drawn)
-8%	x	-3.6%	x	COc1ccc(NC(=O)CSCC(=O)OCc2cccc(OC)c2OC)cc1
0%	-1%	-0.2%	x	O=C(NCCCN1CCOCC1)c1ccc(NS(=O)(=O)c2ccccc2)cc1
2%	-5%	-7.3%	2	COc1ccc(C2(O)CCN(CCCCOc3ccccc3)CC2)cc1
-5%	0%	u	9	COc1cccc(F)c1C(=O)NC(=O)Nc1ccc2nc(C)oc2c1
-5%	-32%	-0.6%	3	O=C(c1cc2c(F)cccc2s1)N1CCCC1
14%	-1%	0.1%	x	FC(F)(F)c1cccc(Nc2nc(N3CCOCC3)nc(N3CCOCC3)n2)c1
12%	-2%	-0.9%	11	Cc1cnn(-c2ccc3nnc(-c4ccc(Cl)cc4)n3n2)c1
-8%	-20%	5.5%	-16	O=C(Cc1cccs1)NCc1cccs1
10%	-4%	0.2%	x	CCCCc1cc(=O)oc2cc(OCC(=O)N[C@@H](Cc3ccccc3)C(=O)O)ccc12
47%	-2%	-1.0%	5	COCCNC(=O)CN1C(=O)COc2ccc(Cl)cc21
10%	1%	0.1%	-2	O=C(CSc1nnc(-c2ccncc2)n1-c1ccc(F)cc1)NNC(=O)c1cccc(O)c1
14%	-23%	-0.8%	-3	Cc1ccnc(NC(=O)CSc2ccccn2)c1
-5%	-32%	1.8%	-12	C#CCN(CC=C)C(=O)CCc1nnc(COc2ccccc2)o1
9%	24%	-0.2%	-1	OCCN1CCN(c2ncnc3ccc(Br)cc23)CC1
48%	-1%	8.1%	x	CC1(C)Cc2ccccc2C(C(=O)c2ccccc2)=N1
11%	-2%	-1.2%	-1	CCn1c(COc2ccccc2C)nnc1SCC(=O)CC(=O)Nc1ccccc1
21%	x	7.6%	x	CC(Oc1ccc(S(=O)(=O)N2CCCC2)cc1[N+](=O)[O-])C(=O)NC1(C#N)CCCCC1 (stereo not drawn)
-8%	-6%	-3.3%	x	CCCc1nnc(NC(=O)CCC(=O)N2CCN(S(=O)(=O)c3ccc(OC)cc3)CC2)s1

Five compounds picked at random from those above:
Rango release inh	miR-21 reporter	Rango-impB inh	GLA inh pH 4.5	SMILES
0%	-1%	-0.2%	x	O=C(NCCCN1CCOCC1)c1ccc(NS(=O)(=O)c2ccccc2)cc1
u	0%	u	-2	O=c1cc2c(=O)oc3cc(O)c(O)oc3c2c(O)c1O
10%	1%	0.1%	-2	O=C(CSc1nnc(-c2ccncc2)n1-c1ccc(F)cc1)NNC(=O)c1cccc(O)c1
13%	0%	-2.6%	-9	CCOC(=O)CS(=O)(=O)CC(=O)Nc1ccc([N+](=O)[O-])cc1OC
-3%	-31%	-2.1%	x	Cc1c(C(=O)Nc2ccccn2)sc2nc3n(c(=O)c12)CCC3

Next part
Rango release inh	miR-21 reporter	Rango-impB inh	GLA inh pH 4.5	SMILES
6%	14%	1.9%	x	Cc1ccc(Cl)cc1N1CCN(S(=O)(=O)c2ccc3c(c2)NC(=O)C(C)C(=O)N3)CC1 (stereo not drawn)
16%	1%	13%	x	CCc1nn(CC(=O)N2CCCCCC2)c(=O)c2cc3ccccc3n12
42%	-8%	0.0%	-29	Cc1csc2c(N3CCN(C(=O)Nc4ccc(OC(F)(F)F)cc4)CC3)ncnc12
-9%	-2%	-1.3%	-1	CCc1nnc(NC(=O)CSc2nnc(-c3ccccc3OC)n2-c2ccccc2)s1
5%	2%	-3.1%	-3	Cc1cccc(OCC(=O)NN2C(=O)C3C4C=CC(O4)C3C2=O)c1 (stereo not drawn)
7%	3%	2.6%	x	COc1ccc(-c2sc(Nc3ccccc3)n[n+]2-c2ccc(F)cc2)cc1Br
-5%	-17%	1.9%	-1	CCN(CC)S(=O)(=O)c1cccc(C(=O)NCc2ccccc2)c1
19%	29%	6.1%	x	NCCCNc1nc(N)c([N+](=O)[O-])c(NC2CCCCC2)n1
2%	0%	-3.7%	-1	O=C(CSCCO)Nc1cccc2ccccc12
u	-36%	u	-4	CC(C)OC(=O)CC(=O)CSc1nc2c(cc1C#N)CCCC2
-8%	-6%	-0.6%	-25	O=C(O)COc1ccccc1C1C2C(=O)N(c3ccc(F)cc3)C(=O)C2ON1c1ccccc1 (stereo not drawn)
8%	0%	-0.8%	1	N#Cc1ccc(C(=O)Nc2cccc(NC(=O)c3ccco3)c2)c(F)c1
-8%	3%	-1.9%	x	CCS(=O)(=O)N1CCC(C(=O)Nc2cc(C)ccc2O)CC1
11%	-20%	3.3%	1	COc1ccc2c(c1OC)C(=O)N1N=C(c3ccccc3)CC21 (stereo not drawn)
7%	25%	-3.3%	-20	CNC(=S)N(Cc1ccc(OC)cc1)C1CC(=O)N(c2ccc(Cl)cc2)C1=O (stereo not drawn)
-12%	-9%	-2.7%	-5	CCc1nc(NCC2CCCN2CC)c2nnn(Cc3ccccc3F)c2n1 (stereo not drawn)
3%	-7%	-2.8%	4	Oc1ccccc1Oc1ncc(Br)c(N2CCOCC2)n1
-11%	-40%	-1.3%	x	Cc1ccc(CNC(=O)c2ccc(Cn3cc(-c4ccc(C)cc4)nc3-c3ccncc3)cc2)cc1
-2%	1%	0.2%	1	COc1cc(S(=O)(=O)NC2CCCCC2)c(C)cc1C
16%	-23%	4.2%	3	CC(=O)c1sc(-c2cccc(Cl)c2)nc1C
1%	-7%	1.1%	-3	CC(=O)N(CCP(=O)(c1ccccc1)c1ccccc1)Cc1ccco1
-15%	-1%	0.2%	x	CC(C)c1nnc(SCC(=O)NC2CCCC2)n1C
-5%	-3%	-0.8%	x	CC(NC(=O)[C@@H](C)NC(=O)[C@@H]1Cc2ccccc2CN1C(=O)OC(C)(C)C)c1ccccc1 (stereo partly drawn)
1%	-2%	-3.3%	5	COc1ccc(C(=O)NCCNC(=O)c2cc(OCC(F)(F)F)ccc2OCC(F)(F)F)cc1
11%	3%	0.8%	x	COc1ccccc1CC(=O)N1CCN(c2cccc(Cl)c2)CC1

Continuation.
Rango release inh	miR-21 reporter	Rango-impB inh	GLA inh pH 4.5	SMILES
u	-1%	-1.0%	-16	O=C(O)C(NS(=O)(=O)c1ccc(F)cc1)c1ccccc1 (stereo not drawn)
-6%	1%	-1.8%	8	CC(=O)Nc1cc(C(=O)N2CCOCC2)ccc1S(=O)(=O)c1ccc(C)cc1
1%	-10%	-0.7%	-10	CSC1=NC(C)N2C(SC)=NC(C)N12 (stereo not drawn)
7%	4%	3.0%	-2	O=C(NCc1ccco1)c1cc(C(=O)C2CC2)c[nH]1
1%	9%	-0.6%	x	COc1ccc(NC(=O)Cn2cc(C(C)=O)c3ccccc32)cc1
11%	x	-4.8%	x	COc1cc(C)c(/C=C/C(C)=C/C=C/C(C)=C/C(=O)O)c(C)c1C
-14%	-2%	4.9%	x	CC(=O)N1CCc2cc(S(=O)(=O)C(C)CC(=O)NCc3ccc(C)o3)ccc21 (stereo not drawn)
-11%	-1%	-0.2%	x	O=C(Cc1ccsc1)NCc1ccccc1F
5%	x	-0.1%	x	C[C@@]12C(=O)N(Cc3ccc(F)cc3)CC(=O)N1[C@H]1c3cc(Cl)ccc3OC[C@@H]1[C@@H]2c1ccccc1
14%	x	1.0%	x	COc1ccc(S(=O)(=O)N2CCCCCC2)cc1C(=O)N(C)Cc1cccs1
0%	-32%	1.5%	3	Cc1occc1C(=O)N/N=C/c1ccccn1
-6%	-40%	0.2%	-4	Cc1ccnc2ccc(-c3nc4ccccc4o3)cc12
-2%	-16%	0.9%	x	O=C1OCc2ccc(NC(=O)c3c(F)cccc3Cl)cc21
10%	-8%	-1.8%	-12	CCCN(CCC)C(=O)c1ccccc1C(=O)N(CCC)CCC
15%	1%	6.4%	x	Cc1cccc(C)c1NC(=O)CSc1nc(C2CC2)nc2ccccc12
5%	0%	1.2%	-2	COC(=O)c1cc(NC(=O)c2ccccc2F)cc(C(=O)OC)c1
4%	-1%	6.2%	-2	CCOC(=O)c1ccc(NC(=O)Nc2ccc3c4c(cccc24)C(=O)N3CC)cc1
-10%	-2%	-1.2%	-9	COC(=O)C1=C(C)N(C)C(C)=C(C(=O)OC)C1c1ccc(F)c(Br)c1
-3%	-4%	-1.3%	-2	COc1cc(C(=O)Nc2ccc(-n3cnnn3)c(C)c2)cc(OC)c1OC
2%	-2%	3.7%	3	CCOC(=O)N1CCN(C(=O)CN(c2cccc(OC)c2)S(C)(=O)=O)CC1
-2%	5%	3.3%	-9	S=C(NCc1cccnc1)Nc1cc(Cl)cc(Cl)c1
19%	0%	-1.0%	4	O=C(CCSCCc1ccccn1)Nc1ccccn1
6%	-36%	-0.3%	0	COc1ccc(NC2=C(Cl)C(=O)N(CCc3ccccc3)C2=O)cc1
1%	-39%	2.6%	-1	CCCC(=O)Nc1ccc2oc(-c3ccc(OC)c(Br)c3)nc2c1
-9%	x	3.7%	x	CCCCNC(=O)c1onc(CS(=O)(=O)c2ccccn2)c1C(=O)NCCCC

Next compounds follow:
Rango release inh	miR-21 reporter	Rango-impB inh	GLA inh pH 4.5	SMILES
u	1%	u	x	Cc1ccc2nc3c(cc(C(=O)NCCN4CCOCC4)c(=N)n3CCCN3CCOCC3)c(=O)n2c1
0%	-35%	0.2%	-7	CCSc1ncc(/C=N/Nc2ccc(F)cc2)n1C
6%	1%	-0.6%	x	COc1ccc(Cl)cc1NC(=O)c1[nH]c(C)c(C(C)=O)c1C
-1%	0%	-2.6%	6	CN(C)S(=O)(=O)c1cccc(C(=O)OCC(=O)N2c3ccccc3NC(=O)C2(C)C)c1
0%	x	2.5%	x	N#CCOC(=O)C1CCN(S(=O)(=O)c2ccc3c(c2)OCCO3)CC1
12%	11%	1.4%	-2	c1ccc2c(c1)OCC(CNc1ncnc3sccc13)O2 (stereo not drawn)
10%	5%	0.2%	x	CC(C)(C)OC(=O)CNC(=O)c1nc[nH]c1C(=O)N1CCc2ccccc2C1
-3%	2%	-1.0%	7	O=C(Nc1ccc(F)cc1)c1oc2ccccc2c1NC(=O)C1CCCC1
-11%	-31%	4.4%	x	N#Cc1c(NC(=O)c2ccc([N+](=O)[O-])o2)sc2c1CCC2
0%	3%	0.0%	-2	Cc1ccc(N2CCN(CC(O)COc3ccc([N+](=O)[O-])cc3)CC2)cc1 (stereo not drawn)
12%	0%	-0.2%	-8	O=C(NNC(=O)c1ccccc1-n1cccc1)c1ccccc1
10%	-69%	8.5%	5	COC(=O)c1ccc(OCC(=O)c2cccc(OC)c2)cc1
7%	0%	-2.1%	-4	COC(=O)c1c(NC(=O)COC(=O)[C@@H](NS(=O)(=O)c2ccc(C)cc2)C(C)C)sc2c1CCC2
-6%	22%	0.6%	-13	NC(=O)c1ccsc1NC(=O)c1ccc(S(=O)(=O)N2CCCc3ccccc32)cc1
-2%	3%	4.4%	3	Cc1nc2sccc2c(=O)n1N
1%	0%	1.3%	11	Cc1[nH]c(=O)c(C#N)c(C)c1Cc1ccc(Cl)cc1Cl
1%	-9%	3.3%	4	CN(CC(=O)NC1CCCCC1)S(=O)(=O)c1ccc(Cl)cc1

Source: PubChem (National Center for Advancing Translational Sciences (NCATS))
